High-throughput results from PubChem BioAssay.
p53 HeLa – p53 stabilisation in HPV-positive human cells, imaging, p53-positive nuclei imaging, 24 h, 48 h (AID 1508601); Cellular tumor antigen p53 (Homo sapiens); p53-positive nuclei imaging, 48 h; active compounds read high; some inactives read as strong as hits; p53-positive nuclei, normalised, % at 11 µM unless noted; hit rate 1% among 5,700;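 active = mean of two plates above 50% at 24 h or at 48 h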;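 also: HPV-positive HeLa cells with a fluorescent p53 stability reporter; 0% = vehicle and 100% = proteasome inhibitor control; doses worked out from stocks diluted about 900-fold with the highest of each compound shown; many of its hits are not listed in these tables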
p53 HeLa cells 24 h – also measured in p53 HeLa; calls as there; nuclei count, normalised, %; measured here: cell number at 24 h;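 100% = vehicle wells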
p53 HeLa p53 24 h – recorded beside p53 HeLa, whose call it bears; p53-positive nuclei, normalised, %; measured here: p53 positive nuclei at 24 h;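 0% = vehicle and 100% = positive control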
p53 HeLa cells 48 h – further read-out of p53 HeLa, marked with its call; nuclei count, normalised, %; measured here: cell number at 48 h;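 100% = vehicle wells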
Numbers without * were called inactive; [ ] = remark or other dose. A portion of the library; the hit share may differ from the screen's.

SMILES	p53 HeLa	p53 HeLa cells 24 h	p53 HeLa p53 24 h	p53 HeLa cells 48 h
Cc1ccc([N+](=O)[O-])cc1S(=O)(=O)N(C)N=Cc1cnc2ccc(Br)cn12	14[3.7 µM]	18	4.1	15
Clc1ccc(C2(c3ccc(-c4cn[nH]c4)cc3)CCNCC2)cc1	2.0	52	1.3	47
NCCC(O)(P(=O)(O)O)P(=O)(O)O	-0.2	72	-0.1	73
Cc1c(-c2ccc(-c3ccccc3F)cc2)nc2ccc(F)cc2c1C(=O)O	0.2	77	0.3	67
OCCOc1ccc(C(=C(CCCl)c2ccccc2)c2ccccc2)cc1	0.3	100	0.5	110
COc1cc(OC)cc(C(=O)Nc2ccc(Cl)c(-c3nc4ccc(N(C)C)cc4[nH]3)c2)c1	-0.1	113	-0.1	116
Cc1ccc(-c2csc(NC(=O)c3ccccc3)n2)c(C)c1	0.1[3.7 µM]	107	-0.3	102
O=c1cnn(C2OC(CO)C(O)C2O)c(=O)[nH]1 (stereo unspecified)	0.5	91	0.3	74
COc1ccc(CCOC2CCCCC2N2CCC(O)C2)cc1OC (stereo unspecified)	-0.2	104	0.0	105
C#CCC(c1nc2cc(Cl)ccc2c(=O)n1Nc1ccccc1)N(CCCN)C(=O)c1cccc(Cl)c1F (stereo unspecified)	0.1[3.7 µM]	59	-0.1	53
CN(C)c1ccc(C(=C2C=CC(=[N+](C)C)C=C2)c2ccc(N(C)C)cc2)cc1	2.8[3.7 µM]	45	1.0	45
CN1CCC(=C2c3ccccc3C=Cc3ccccc32)CC1	-0.1[3.7 µM]	111	-0.2	109
CCc1ccc(Cc2ccc3c(c2)[C@]2(OC3)OC(CO)C(O)C(O)C2O)cc1 (stereo partly specified)	0.0	116	-0.1	116
CCOc1ccc(S(=O)(=O)N(CC(=O)N=Nc2c(O)[nH]c3ccccc23)c2ccccc2)cc1	1.1	45	0.1	28
CC[N+](CC)(CC)CC(=O)Nc1c(C)cccc1C	-0.1	97	0.0	97
O=C(O)c1cc(C(=O)O)c(C(=O)N(Cc2cccc(Oc3ccccc3)c2)C2CCCc3ccccc32)cc1C(=O)O (stereo unspecified)	0.0	109	0.0	107
CC(=CC(=O)Nc1ccccc1C(=O)O)c1ccc2ccccc2c1	-0.5[3.7 µM]	115	-0.3	115
COc1ccc(C(=O)Nc2sc3c(c2C(N)=O)CCCC3)cc1OC	0.2[3.7 µM]	109	-0.3	104
O=C1O[C@H](C(O)CO)C(O)C1O (stereo partly specified)	-0.2[3.7 µM]	110	-0.3	103
Cc1nc(C(=O)N2CCCC2Cc2nnc(-c3ccccc3)o2)c(-c2ccccc2F)s1 (stereo unspecified)	-0.2	96	-0.1	99
O=C(Nc1ccccc1)c1ccccc1O	0.0[3.7 µM]	110	-0.2	101
CCCCC(F)(F)[C@@]1(O)CCC2C(CC(=O)C2CCCCCCC(=O)O)O1 (stereo partly specified)	-0.1	110	-0.1	100
CN1CCC(c2c(O)cc(O)c3c(=O)cc(-c4ccccc4Cl)oc23)C1CO (stereo unspecified)	31	24	6.3	17
CCCC(NC(=O)C1[C@H]2CCC[C@H]2CN1C(=O)C(NC(=O)C(NC(=O)c1cnccn1)C1CCCCC1)C(C)(C)C)C(=O)C(=O)NC1CC1 (stereo partly specified)	-0.6[3.7 µM]	113	-0.3	108
Cc1c(Cc2ccc3ccccc3n2)c2cc(F)ccc2n1CC(=O)O	-0.1	101	-0.1	105
CC(C)c1cnn2c(NCc3ccccc3)cc(NCCCCCCN)nc12	1.0	36	1.4	37
O=C(O)[C@@]1(CCCCCCOc2ccc(Cl)cc2)CO1	-0.1	110	-0.2	110
NS(=O)(=O)c1cc2c(cc1Cl)NC(C(Cl)Cl)NS2(=O)=O (stereo unspecified)	-0.1[3.7 µM]	109	-0.3	110
CCC(C)SSc1ncc[nH]1 (stereo unspecified)	2.9	53	0.8	51
C=CCN(C)CCCCCCOc1ccc(C(=O)c2ccc(Br)cc2)c(F)c1	0.5	103	1.1	99
CC(C)C(CO)Nc1nc(Nc2ccc(C(=O)O)c(Cl)c2)c2ncn(C(C)C)c2n1 (stereo unspecified)	0.1	114	-0.1	115
CC1(C)S[C@@H]2C(NC(=O)C(C(=O)O)c3ccccc3)C(=O)N2C1C(=O)O (stereo partly specified)	-0.2[3.7 µM]	119	-0.3	111
Cc1nc2c([nH]1)CCN(C(=O)c1ccc(NC(=O)c3ccccc3-c3ccccc3)cc1)c1ccccc1-2	-0.1	112	0.0	109
COc1cc2c(cc1OC)[C@@H]1Cc3ccc(OC)c(OC)c3CN1CC2	-0.1[3.7 µM]	105	-0.2	88
CC(=O)O[C@]1(C(C)=O)CC[C@H]2[C@@H]3C[C@H](C)C4=CC(=O)C=C[C@]4(C)[C@@]3(F)[C@H](O)C[C@@]21C	-0.2[3.7 µM]	116	-0.2	110
C=CCc1ccc(O)c(-c2ccc(O)c(CC=C)c2)c1	0.0[3.7 µM]	103	-0.1	103
C[N+]1(C)[C@@H]2CC[C@H]1CC(OC(=O)C(O)c1ccccc1)C2 (stereo partly specified)	-0.1[3.7 µM]	117	-0.2	114
N#Cc1c(-c2ccccc2)cc(-c2cc(Br)ccc2O)[nH]c1=O	-0.1	113	-0.1	114
CC(C)C(=O)Nc1ncc(-c2cc(C(F)F)nn2-c2c(Cl)cccc2Cl)s1	0.1	101	0.0	95
CN1C(C(=O)Nc2ccccn2)=C(O)c2sc(Cl)cc2S1(=O)=O	0.0[3.7 µM]	98	-0.1	99

Continued, overlapping the part above by three compounds.
SMILES	p53 HeLa	p53 HeLa cells 24 h	p53 HeLa p53 24 h	p53 HeLa cells 48 h
N#Cc1c(-c2ccccc2)cc(-c2cc(Br)ccc2O)[nH]c1=O	-0.1	113	-0.1	114
CC(C)C(=O)Nc1ncc(-c2cc(C(F)F)nn2-c2c(Cl)cccc2Cl)s1	0.1	101	0.0	95
CN1C(C(=O)Nc2ccccn2)=C(O)c2sc(Cl)cc2S1(=O)=O	0.0[3.7 µM]	98	-0.1	99
O=C(NNc1nc2cc(F)ccc2n2cccc12)c1cnccn1	0.3[3.7 µM]	68	-0.1	59
CN(C)CC=CC(=O)Nc1ccc(C(=O)Nc2cccc(Nc3ncc(Cl)c(-c4c[nH]c5ccccc45)n3)c2)cc1	-0.2	32	0.3	25
CS(=O)(=O)CCNCc1ccc(-c2ccc3ncnc(Nc4ccc(OCc5cccc(F)c5)c(Cl)c4)c3c2)o1	0.4	51	0.0	47
Cc1c(O)cccc1C(=O)NC(CSc1ccccc1)C(O)CN1C[C@H]2CCCC[C@H]2CC1C(=O)NC(C)(C)C (stereo partly specified)	0.1[3.7 µM]	116	0.0	108
Cc1cccc(CC(=O)N2CCc3c2ccc(-c2cn(C)c4ncnc(N)c24)c3F)n1	-0.1	114	-0.2	102
CC1CNCCCN1S(=O)(=O)c1cccc2cncc(F)c12 (stereo unspecified)	-0.1	114	-0.1	131
O=C(NCc1ccc(Cl)cc1Cl)C1CC(=O)N(Cc2ccccc2)C1 (stereo unspecified)	-0.1	107	0.0	106
CC(C)c1ccccc1OC(=O)NCCc1ccc2ccccc2c1	-0.2	86	0.0	84
CC1(C)SC2C(NC(=O)C(NC(=O)N3CCNC3=O)c3ccccc3)C(=O)N2C1C(=O)O (stereo unspecified)	-0.1[3.7 µM]	118	-0.2	111
COc1cc(F)c(F)c(Nc2ccc(I)cc2F)c1NS(=O)(=O)C1(CC(O)CO)CC1 (stereo unspecified)	-0.5[3.7 µM]	101	-0.4	100
C[N+](C)(C)CCCCCCCCCC[N+](C)(C)C	-0.2[3.7 µM]	107	-0.3	102
Nc1ccn(C2OC(CO)C(O)C2(F)F)c(=O)n1 (stereo unspecified)	0.0[3.7 µM]	51	-0.1	49
c1ccc(-c2[nH]ncc2-c2ccnc3ccccc23)nc1	-0.2	103	-0.1	104
CC1(C)[C@@H](O)CC[C@@]2(C)[C@H]1CC[C@]1(C)[C@H]2C(=O)C=C2[C@H]3C[C@@](C)(C(=O)O)CC[C@]3(C)CC[C@]21C	-0.1[3.7 µM]	112	-0.2	109
NC(=O)c1[nH]nc(C2OC(CO)C(O)C2O)c1O (stereo unspecified)	-0.1	76	0.0	61
Cc1ccc(C(=O)Nc2ccc(Oc3cc4cnn(C)c4cc3-c3cn[nH]c3)c(F)c2)c(=O)n1-c1ccc(F)cc1	-0.2	117	-0.2	130
COc1ccc2c(c1)n(CCN)c(=O)n2C(=O)C1CC(C)CCC1C(C)C (stereo unspecified)	0.7	51	1.2	58
CCCNC(=O)C1OC1C(=O)N[C@@H](C(=O)N1CCCC1C(=O)O)C(C)CC (stereo partly specified)	0.4	74	0.1	77
CCOC(=O)c1sc(NC(=O)c2ccco2)c(SC#N)c1C	1.1	97	2.1	101
CC(C(=O)O)c1ccc2c(c1)Cc1cccnc1O2 (stereo unspecified)	0.0[3.7 µM]	66	-0.4	45
CC1(C)C=C(CN2CC(=Cc3ccc(F)cc3)C(=O)C(=Cc3ccc(F)cc3)C2)C(C)(C)N1O	-0.1[3.7 µM]	100	-0.3	102
Cc1nc(NC(=O)N2CCCC2C(N)=O)sc1-c1csc(C(C)(C)C)n1 (stereo unspecified)	0.0	106	0.1	109
O=C(NC(=O)c1c(F)cccc1Cl)NC1c2ccccc2-c2ccccc21	0.0	113	-0.1	104
NCCCCCC(=O)O	0.0[3.7 µM]	108	-0.2	108
COc1cc(=C2C=c3ccccc3=N2)[nH]c1=Cc1[nH]c(C)cc1C	105*	66*	137*	53*
COc1cnc(NS(=O)(=O)c2ccc(N)cc2)nc1	-0.1[3.7 µM]	76	-0.3	90
O=C(O)C1OC(Oc2cc3oc(-c4ccccc4)cc(=O)c3c(O)c2O)C(O)C(O)C1O (stereo unspecified)	0.2[3.7 µM]	95	2.3	101
CN1c2cc(O)c(N=NC(N)=O)cc2CC1S(=O)(=O)O (stereo unspecified)	-0.1[3.7 µM]	111	-0.3	107
OB(O)c1ccccc1	-0.1	104	-0.1	105
Cc1cc(-c2ccccc2)nc2cc(C(=O)Nc3cccc(O)c3)nn12	-0.2	97	-0.1	105
C=C(C)C1CC[C@]2(C(=O)O)CC[C@]3(C)[C@H](CC[C@@H]4[C@@]5(C)CCC(O)C(C)(C)[C@@H]5CC[C@]43C)[C@@H]12 (stereo partly specified)	-0.1[3.7 µM]	109	-0.3	106
Nc1ccc(C(=O)O)cc1	0.0	113	0.0	110
CC(C)(C)NC(=O)C1CC[C@@H]2[C@@H]3CC[C@H]4NC(=O)C=C[C@]4(C)[C@@H]3CC[C@]12C (stereo partly specified)	0.0	103	0.0	102
C=CC(=O)Nc1cc(NC(=O)c2ccc(C)c(NC(=O)c3ccno3)c2)cc(C(F)(F)F)c1	0.1	87	0.2	81
CC1CCc2cc(F)cc3c(=O)c(C(=O)O)cn1c23 (stereo unspecified)	0.0[3.7 µM]	115	-0.1	111
O=C(C=Cc1ccccc1)NC(NC(=S)Nc1ccc(Cl)cc1)C(Cl)(Cl)Cl (stereo unspecified)	3.4	93	2.0	104
CC[N+](CC)(CC)CCOc1cccc(OCC[N+](CC)(CC)CC)c1OCC[N+](CC)(CC)CC	-0.2[3.7 µM]	104	-0.1	101
CC(C)CCN1c2nc(Nc3cc(F)c(O)c(F)c3)ncc2N(C)C(=O)C1C (stereo unspecified)	0.6	62	0.4	63
CC(C)CCNC(=O)C(CC(C)C)NC(=O)C1OC1C(=O)O (stereo unspecified)	-0.1[3.7 µM]	113	-0.3	107
O=C1NC(=O)[C@@H](c2cn3c4c(cccc24)CCC3)[C@H]1c1c[nH]c2ccccc12	3.9	42	1.6	25

Sorted by molar mass (ascending): some entries from above
SMILES	p53 HeLa	p53 HeLa cells 24 h	p53 HeLa p53 24 h	p53 HeLa cells 48 h
N#Cc1c(-c2ccccc2)cc(-c2cc(Br)ccc2O)[nH]c1=O	-0.1	113	-0.1	114
O=C(NCc1ccc(Cl)cc1Cl)C1CC(=O)N(Cc2ccccc2)C1 (stereo unspecified)	-0.1	107	0.0	106
C=CC(=O)Nc1cc(NC(=O)c2ccc(C)c(NC(=O)c3ccno3)c2)cc(C(F)(F)F)c1	0.1	87	0.2	81
Cc1c(O)cccc1C(=O)NC(CSc1ccccc1)C(O)CN1C[C@H]2CCCC[C@H]2CC1C(=O)NC(C)(C)C (stereo partly specified)	0.1[3.7 µM]	116	0.0	108

New compounds follow.
SMILES	p53 HeLa	p53 HeLa cells 24 h	p53 HeLa p53 24 h	p53 HeLa cells 48 h
Clc1ccc2nsnc2c1NC1=NCCN1	-0.1	106	-0.1	109
CCCC(C)NC(=O)c1ccc(Cl)c(Cl)c1 (stereo unspecified)	0.0[3.7 µM]	116	-0.3	114
Cc1nn(C)c2nc(NNC(=O)Nc3cc(Cl)nc(Cl)c3)cc(C(C)C)c12	-0.4	98	-0.2	101
CCOC(=O)N1c2ccc(C(F)(F)F)cc2C(N(Cc2cc(C(F)(F)F)cc(C(F)(F)F)c2)C(=O)OC)CC1CC (stereo unspecified)	0.8	111	0.2	108
CC(C)(c1cc(Br)c(OCC(O)CN2CCOCC2)c(Br)c1)c1cc(Br)c(OCC(O)CN2CCOCC2)c(Br)c1 (stereo unspecified)	0.0	105	0.1	103
NC12CC3CC(CC(C3)C1)C2	-0.1[3.7 µM]	108	-0.2	108
Cc1cc(CS(=O)(=O)c2ccccc2)cc(OCc2ccc(CN3CCCC3CO)cc2)c1 (stereo unspecified)	0.1	82	0.1	84
COC(=O)C1C(O)CC[C@H]2CN3CCc4c([nH]c5ccccc45)[C@@H]3C[C@H]12 (stereo partly specified)	-0.1[3.7 µM]	104	-0.4	106
Cc1c(CC(=O)O)c2cccnc2n1Cc1ccc(S(C)(=O)=O)cc1C(F)(F)F	0.0	109	-0.1	106
